# Menin MLL FP FL: displaces fluorescein MLL peptide from human menin. 290,000 tested, under 10 active. FP activity change, % at 61.4 µM. Fluorescence polarization, fluorescein-MLL peptide displacement from menin; inconclusive = falling polarisation curve, or a change in total fluorescence; inactive = total fluorescence flat and polarisation flat or rising; no compound was filed as active; the % refers to the polarisation; negative = inhibition;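 note: % of control where 0% means no effect; inhibitors lower the polarisation; unlabelled MLL peptide was the positive control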
# TRPML1 inh: inhibitors of human TRPML1 channel | TRPML1-inducible cells, Ca2+ dye fluorescence, FDSS; hits give low values; inhibition of EC80 agonist-evoked calcium signal | activity change, negative = inhibition, % (test concentration not listed) | 0.02% of 390,000 active | AID 624415; in the data active means activity change below about -50%; inconclusive means about -30% to -50%; inactive means above about -30%;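 note: stimulus is agonist 54-4 at its EC80 concentration; % is set by controls: 0 for no effect and ±100 for the full control effect; compound concentration not given in the record; the text of the record puts the active cut at -80%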
#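 Tet-induced TRPML1-DL cells loaded with Ca8 no-wash calcium dye were read kinetically on FDSS. Compound addition was followed by EC80 agonist 54-4 (4 uM final); inhibition was read over 110 s.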
# Sfp inh: inhibitors of Bacillus subtilis Sfp phosphopantetheinyl transferase; 3.5% of 310,000 active; Q9F4F7; Biochemical Sfp PPTase activity, qHTS; Potency, µM, for inactives: max response, negative = inhibition, actives largely listed as inhibitors; active = well fitted inhibition curve with a large enough effect; inconclusive = small, poorly fitted or top-dose-only effect, or another doubt; inactive = no such curve, though single readings can be large or run the other way;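 note: the enzyme is Sfp with the accession as filed and its product quenches rhodamine fluorescence; potency is the fitted concentration of half-maximal effect; 0% = enzyme reaction without inhibitor and -100% = no enzyme wells; top concentration of the series not given in the record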
#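 Fluorescence-quenching assay: 15 nM Sfp-PPTase preincubated 15 min at room temperature with compound, then 5 uM rhodamine-CoA and 12.5 uM BHQ-2-labelled YbbR peptide added. Fluorescence (ex 525/em 598 nm) read at start and after 30 min; difference gives rate.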
# ClpP mod: qHTS Assay for Activators of ClpP; AID 651965, 2013; Potency, µM (top dose mostly 57.5 µM), for the others: at the highest dose activity change, negative = active; purified B. subtilis ClpP, FRET peptide cleavage, 20 min; 1.9% of 340,000 active; ATP-dependent Clp protease proteolytic subunit (Bacillus subtilis (strain 168)), P80244; active = well fitted falling curve with a large enough effect; inconclusive = small, poorly fitted or top-dose-only effect; inactive = no such curve, though single readings can be large or run the other way; note: potency is the fitted concentration of half-maximal effect; the source files actives as falling curves though it sought activators and does not explain the sign; nearly all actives have a fitted effect of over 65% in size; many hits overshoot -100%
# Target sequence (P80244 whole entry, looked up): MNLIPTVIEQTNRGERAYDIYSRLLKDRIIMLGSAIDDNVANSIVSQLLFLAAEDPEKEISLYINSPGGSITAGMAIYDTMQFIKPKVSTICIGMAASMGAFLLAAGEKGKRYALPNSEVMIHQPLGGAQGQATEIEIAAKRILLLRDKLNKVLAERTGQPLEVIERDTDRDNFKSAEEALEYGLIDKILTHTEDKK
#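 ClpP 10 microg/mL final, pH 8 Tris/KCl buffer with BSA, glycerol, Tween-20; compound pinned in; FRET-FV substrate; RT 20 min; Ex320/Em430; ΔFRET vs ADEP 5.8 microM, DMSO, no enzyme.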
# TRPV1 potentiator: potentiators of human vanilloid receptor 1 (TRPV1); Q8NER1; TRPV1-expressing cells, Fluo-8 calcium influx, capsaicin EC20 potentiation; host cell line not named in the record; control for the full effect not named in the record; potentiation, % at 8.33 µM; 0.02% of 320,000 active; AID 540277; active means potentiation above 80%; inconclusive means 30% to 80%; inactive means below 30%; note: 0% is about no effect
# Target sequence (Q8NER1 whole entry, looked up): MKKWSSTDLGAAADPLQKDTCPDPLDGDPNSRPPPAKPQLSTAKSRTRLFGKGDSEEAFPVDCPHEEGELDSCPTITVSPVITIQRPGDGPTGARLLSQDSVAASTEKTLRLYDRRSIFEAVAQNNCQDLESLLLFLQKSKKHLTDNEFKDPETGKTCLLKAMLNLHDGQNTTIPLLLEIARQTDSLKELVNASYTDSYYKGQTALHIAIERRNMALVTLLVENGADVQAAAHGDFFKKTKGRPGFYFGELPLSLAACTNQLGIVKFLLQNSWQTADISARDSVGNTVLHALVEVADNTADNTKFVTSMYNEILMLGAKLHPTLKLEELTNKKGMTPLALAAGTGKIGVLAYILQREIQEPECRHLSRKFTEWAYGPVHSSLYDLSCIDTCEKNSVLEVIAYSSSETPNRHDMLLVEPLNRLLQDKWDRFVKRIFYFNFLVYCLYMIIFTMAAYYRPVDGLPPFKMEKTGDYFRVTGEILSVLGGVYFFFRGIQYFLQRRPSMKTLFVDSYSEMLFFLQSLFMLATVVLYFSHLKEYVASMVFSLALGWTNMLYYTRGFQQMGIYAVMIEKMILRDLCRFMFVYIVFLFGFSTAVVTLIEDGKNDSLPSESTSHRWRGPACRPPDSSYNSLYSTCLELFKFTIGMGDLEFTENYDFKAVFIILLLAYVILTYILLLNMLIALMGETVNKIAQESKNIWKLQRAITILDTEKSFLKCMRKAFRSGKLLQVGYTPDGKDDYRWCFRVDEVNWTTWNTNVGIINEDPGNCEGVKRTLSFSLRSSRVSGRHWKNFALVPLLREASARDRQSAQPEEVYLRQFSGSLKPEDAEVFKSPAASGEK
#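 Fluo-8 calcium influx in TRPV1-expressing cells, kinetic read (ex 480/em 520 nm). Compound added and read 3 min for agonist activity, followed by capsaicin at EC20 final and 2 min further read for enhancement.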
# PINK1 expr mod: changes PINK1 expression. PINK1 immunofluorescence, high-content cytometry, 24 h. Potency, µM (top dose mostly 76.6 µM), without a hit: at the highest dose activation (PINK1 increase), usual class: activators. 0.2% of 410,000 active; active = well fitted activation curve with a large enough effect; inconclusive = small, poorly fitted or top-dose-only effect; inactive = flat fitted curve, though single readings scatter; cell line not stated here;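 note: potency is the fitted concentration of half-maximal effect; % of control where 0% means no effect; nearly all actives have a fitted effect of over 65% in size; a mitochondrial uncoupler was the plate control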
#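 PINK1 protein, normally rapidly degraded, was detected by immunofluorescence after 24 hour compound treatment of a stable cell line. Titration data (5 concentrations) came from laser-scanning cytometry, with CCCP-treated wells as controls.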
# TRPML1 ag: human mucolipin-1 channel agonism; activation, % (test concentration not listed); TRPML1-expressing cells, Ca2+ dye fluorescence, FDSS; host cell line not named in the record; reference of the full effect not given here; 0.12% of 410,000 active; AID 624414; in the data active = activation above about 50%; inconclusive = about 30% to 50%; inactive = below about 30%; note: 0% is about no effect; the text of the record puts the active cut at 80%
#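 TRPML1-DL cells, Tet-induced overnight (~16 h, 37 degrees C), loaded 45-90 min at room temperature with Ca8 no-wash calcium dye plus quencher. FDSS fluorescence: 10 s baseline, compound pin-transfer, 110 s agonist read, then EC80 54-4 (4uM final) and 110 s antagonist read.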
# Numbers without * were called inactive; u = inconclusive; x = not tested or not shown; [ ] = remark or other dose. Rows are unselected, and some 4.4% of all compounds hit somewhere here.
# The opening 2 records, ahead of the listing:
SMILES,Menin MLL FP FL,TRPML1 inh,Sfp inh,ClpP mod,TRPV1 potentiator,PINK1 expr mod,TRPML1 ag
O=C(O)C1CC=CCC1C(=O)Nc1cc(Cl)ccc1Cl (configuration not stated),2.2,40,1%,-0.7%,2,3.0%,0.8
CCCC[N+](C)(C)CCC(=O)NC(C)(C)CS(=O)(=O)[O-],2.9,-13,-4%,0.5%,3,-2.4%,-0.6

# All compounds of this part, previewed entries included:
SMILES,Menin MLL FP FL,TRPML1 inh,Sfp inh,ClpP mod,TRPV1 potentiator,PINK1 expr mod,TRPML1 ag
O=C(O)C1CC=CCC1C(=O)Nc1cc(Cl)ccc1Cl (configuration not stated),2.2,40,1%,-0.7%,2,3.0%,0.8
CCCC[N+](C)(C)CCC(=O)NC(C)(C)CS(=O)(=O)[O-],2.9,-13,-4%,0.5%,3,-2.4%,-0.6
CC1Cc2ccccc2N1CC(=O)NC(c1ccccc1)c1ccccc1 (configuration not stated),5.6,-14,12%,x,-12,-1.4%,2.9
Nc1[nH]c(N=NC(=O)c2ccccc2)c2ccccc12,-1.1,10,-25%,-1.3%,-8,1.7%,0.6
CN(C)c1ccc(C(=O)NN2C(=O)c3ccccc3C2=O)cc1,0.0,-23,15%,x,7,0.5%,1.9
COC(=O)c1sccc1NC(=O)Cn1nnc(-c2ccc(C)cc2)n1,5.8,10,-19%,-6.7%,-5,6.3%[38.3 µM],4.6
COc1ccc(S(=O)(=O)N2CCOCC2)cc1C(=O)N(C)CCOc1ccc(Cl)cc1,x,11,x,1.9%,-5,0.1%,-1.0
CC(C)CC(NC(=O)OC(C)(C)C)c1cn([C@@H](CCCCNC(=O)OC(C)(C)C)C(=O)N2CCN(C(=O)OC(C)(C)C)CC2)nn1 (some centres not stated),-4.7,-18,-3%,1.1%,-6,0.9%,-0.6
COc1ccc(C(=O)OCC(=O)Nc2ccc(F)c(F)c2F)cc1OC,2.0,6,-1%,-13%,-4,6.4%,-0.1
COCCN1CC(CNC(=O)c2cc(COc3ccccc3SC)on2)CC1=O (configuration not stated),-1.3,3,10%,1.3%,1,2.3%,0.3
CCc1cc(C(=O)OC)c(N2C(=O)C3C4C=CC(C4)C3C2=O)s1 (configuration not stated),4.5,-16,-2%,1.4%,-1,1.7%[38.3 µM],-0.3
COC(=O)c1ccc(-n2c(C)ccc2-c2ccccc2)cc1,3.1,12,-14%,-7.9%,6,6.8%[38.3 µM],0.9
COc1ccc(-c2cnc(C(O)c3ccc(C(C)(C)C)cc3)[nH]2)cc1 (configuration not stated),x,x,x,-1.6%,x,2.6%,-0.9
NC(=O)CSc1nc2ccc(NC(=O)COc3ccccc3Cl)cc2s1,x,-5,x,2.1%,x,8.7%,-0.8
Cc1cccn2c(=O)c(C=NCc3ccccc3)c(NCCO)nc12,2.5,-9,4%,44%,13,-2.8%[38.3 µM],-0.2
CC(C)c1ccc2c(c1)NC(c1ccc(F)cc1)=NC(c1cccs1)=N2,x,-4,x,-0.8%,x,1.4%,-0.6
O=C(O)CCC(=O)N1N=C(c2ccc(Br)cc2)CC1c1cccc(Br)c1 (configuration not stated),0.2,11,-15%,x,4,0.4%,-0.1
COc1cc(OC)cc(C(=O)Nc2ccc3nc4c(c(Nc5ccc(OC)c(OC)c5)c3c2)CCCC4)c1,x,38,x,-1.2%,x,-1.7%,-0.1
CC1=C(C(=O)Nc2cccnc2)C(c2ccc(F)cc2)n2nc(SCc3ccccc3F)nc2N1 (configuration not stated),x,6,x,-9.3%,x,-0.3%,-0.1
Cc1cc(=O)oc2c(C)cc(C(C)(C)C)cc12,x,-15,x,x,x,3.3%,1.3
O=C(CCNS(=O)(=O)c1ccccc1)NNC(=O)c1csc(N2CCOCC2)n1,x,64,x,-13%,-3,-4.6%,0.4
CC1(NC(=O)CCc2ccccc2)CCN(CCCc2ccccc2)C1=O (configuration not stated),x,-4,x,1.4%,-7,0.2%,0.2
N=c1c2c(ncn1Cc1ccco1)Oc1cc(O)ccc1C2c1ccccc1 (configuration not stated),u,7,-20%,-0.6%,5,2.2%,1.0
CCCOc1ccc(C(=O)Nc2ccc(NC(=O)c3cccc(Cl)c3)cc2)cc1,x,12,x,1.1%,x,1.2%,-0.5
O=C(O)C1CCN(c2c([N+](=O)[O-])cc(C(F)(F)F)cc2[N+](=O)[O-])CC1,1.0,8,12%,-2.4%,x,0.3%,-0.7
Clc1ccc(CNc2cnccn2)cc1Cl,2.1,2,-14%,0.5%,8,0.9%,0.1
CCOc1ccc(CCN2C(=O)C(=O)N([C@@H](Cc3ccc(O)cc3)CN3CCC[C@@H]3CN3C(=O)C(=O)NC[C@@H]3Cc3ccccc3)C[C@@H]2Cc2ccccc2)cc1,x,-11,x,0.5%,x,3.4%,0.2
COc1cccc(N2C(=O)Nc3ccc(Br)cc3C2(O)C(=O)NCCN(C)C)c1 (configuration not stated),2.5,-1,-1%,1.7%,-1,-1.6%,0.8
O=C(COc1ccccc1)Nc1nnc(-c2ccc(F)cc2)o1,x,-13,10%,-3.5%,4,-0.7%,-0.8
COc1ccc(/C(N)=N/OC(=O)C2CCCCC2)cc1,x,18,-10%,-1.2%,-2,3.0%,0.0
COc1ccccc1N(CC(=O)N1CCCCC1)S(=O)(=O)c1ccccc1,5.2,-8,18%,-0.4%,-8,u,0.9
Cc1ccc(OCc2nc(-c3ccc(C(=O)N4CCN(c5ccccc5)CC4)cc3)oc2C)cc1,x,3,x,3.5%,x,4.9%,0.4
CCOc1ccc(C2c3c(oc4ccccc4c3=O)C(=O)N2c2ccc(C)cn2)cc1OC (configuration not stated),2.9,1,-2%,1.0%,-14,4.1%,0.1
CCCn1c(SCC(=O)Nc2ccc3c(c2)OCCO3)n[nH]c1=O,x,0,x,-0.8%,-6,-0.1%,0.7
Cc1cc(Oc2ccc(N)cn2)cc(C)c1Cl,2.8,7,10%,x,-2,4.1%,-0.4
O=C1NCCN/C1=C\C(=O)c1ccc(Br)cc1,0.7,-13,1%,-0.9%,-1,-1.0%,-0.7
CC1CCC2C(=O)N(c3ccc(NC4CCN(Cc5ccccc5)CC4)c([N+](=O)[O-])c3)C(=O)C2C1 (configuration not stated),1.3,-7,7%,1.0%,3,0.3%,-0.5
O=c1c2ccccc2cnn1Cc1n[nH]c(=S)n1C1CC2CCC1C2 (configuration not stated),7.2,14,1%,-1.1%,15,0.3%,-0.6
CCc1cc2c(=O)c(-c3ccc(F)cc3)c(C(F)(F)F)oc2cc1OCC(=O)O,-0.9,x,9%,x,9,x,x
O=C(NCc1nc2ccccc2n1Cc1ccccc1Cl)c1ccccc1,x,7,x,-1.2%,x,1.4%,-0.2
Cc1ccc(C(=O)NCC(=O)NCC(=O)OCC(=O)c2ccc(Br)cc2)cc1,-0.7,2,19%,-2.7%,-17,6.9%,1.4
CN1CCN(c2nc3ccccn3c(=O)c2/C=C(\C#N)S(=O)(=O)c2ccc(Cl)cc2)CC1,-4.6,0,-2%,x,-1,1.8%,0.8
CC(=O)N1CCN(c2ccc(Oc3ncnc4sccc34)cc2)CC1,2.1,1,2%,0.4%,2,0.2%,-0.2
CC1CN(Cc2cc(=O)[nH]c(C(C)C)n2)CC(C)O1 (configuration not stated),3.4,6,18%,-2.6%,5,4.0%,0.0
COc1cc(/C=N/NC(=O)c2ccncc2)ccc1OC(=O)c1ccco1,x,-5,10%,x,0,3.2%,-0.6
O=C(CSc1n[nH]c(-c2ccccc2Cl)n1)NCCc1ccccc1,x,-7,x,0.5%,x,0.1%,0.2
CC1=NCCN1S(=O)(=O)c1cc(Cl)ccc1Cl,-0.7,12,-6%,0.2%,1,-5.9%,0.7
CCOCc1cnc(C)nc1NCC(=O)c1c(C)[nH]c2ccc(OC)cc12,0.4,-1,u,-0.6%,20,0.9%[38.3 µM],0.4
COc1ccc(S(=O)(=O)N2CCCCC2)cc1NC(=O)c1ccc(Cl)nc1,x,-2,x,2.6%,-3,2.7%,-0.6
C=CCn1c(C(O)c2ccccc2)nc2ccccc21 (configuration not stated),1.5,-9,21%,-0.8%,13,0.2%,-0.4
CC(=O)c1cccc(NC(=S)NNC(=O)c2ccco2)c1,5.4,-7,7%,-0.4%,0,2.7%,0.4
O=C(NCc1ccncc1)C(=O)NCC(c1ccco1)N1CCN(c2ccc(F)cc2)CC1 (configuration not stated),-1.6,-1,15%,-1.9%,-34,1.7%,0.6
CCOC(=O)CC(=O)CSc1ncnc2c1cnn2-c1ccccc1,u,11,-4%,-13%,-5,-1.8%,-1.1
CC(C)(C)C(=O)N1CCN(c2ccc([N+](=O)[O-])c(NCC3CCCO3)c2)CC1 (configuration not stated),-3.2,-1,5%,-1.7%,5,x,1.7
COc1cc2cc(NC(C)=O)cc(NCc3ccccc3)c2cc1OC,-1.4,-8,-10%,x,18,-0.4%,-0.5
CC(C)c1cc(C(=O)N/N=C/c2cccnc2)n[nH]1,x,12,7%,-1.4%,4,-1.7%,0.4
CSc1ccccc1C(=O)N1CCC(n2nccc2NC(=O)C(C)(C)C)CC1,1.5,-1,17%,1.9%,-4,2.0%,0.4
Cc1cccc(C(=O)Nc2ccc(C(=O)c3ccncc3)cc2)c1,x,4,x,-0.8%,x,0.3%,-1.0
O=C(NC1CC1)c1[nH]c(C(F)(F)F)nc1-c1ccccc1,x,0,x,-2.1%,x,0.6%,-0.3
O=C(O)CC(CC(=O)Nc1ccc(F)c(Cl)c1)c1ccc(Cl)cc1Cl (configuration not stated),2.8,-8,9%,-26%,4,-0.3%,0.0

# New compounds follow:
SMILES,Menin MLL FP FL,TRPML1 inh,Sfp inh,ClpP mod,TRPV1 potentiator,PINK1 expr mod,TRPML1 ag
Cc1ccc(-c2cc(C(F)(F)F)n3nc(C(=O)N4CCN5CCCC5C4)cc3n2)cc1 (configuration not stated),1.9,45,-14%,x,-3,3.9%,0.1
O=C(NC(=S)Nc1cccc2c(O)cccc12)c1cccc(Br)c1,-1.4,-10,u,-5.3%,3,12%,-0.3
CCOCCCNC(=O)CN1C(=O)c2cccc3cccc1c23,-6.6,x,-2%,-11%,-19,0.7%,x
Cc1coc2cc3oc(=O)c(CCC(=O)NCCCN4CCOCC4)c(C)c3cc12,0.0,x,15%,-7.7%,8,1.0%,x

# Screening results: PubChem BioAssay, National Center for Advancing Translational Sciences (NCATS)
